From PubChem BioAssay
miR-21 FLuc = qHTS Assay for Modulators of miRNAs and/orActivators of miR-21 | HeLa miR-21 FLuc reporter, luciferase, 48 h | 340,000 tested, under 10 active | AID 2288, 2010 | Potency, µM (series often up to 38.3 µM), for the others: top-dose reporter change, positive = more light; active = well fitted rising curve with a large enough effect; inconclusive = small, poorly fitted or top-dose-only effect; inactive = no such curve, though single readings can be large or run the other way;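 further: % of control where 0% means no effect; miR-21 action dims this reporter so a rising signal means less miR-21 action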
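HeLa miR-21-FLuc reporter line, endogenous miR-21; 2000 cells/well in DMEM/10% FBS; compound titration up to ~40uM final, 48 h, 37 degree Celsius; luciferase detection reagent, 15 min lysis, CCD luminescence.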
Rango release inh = qHTS Assay for Inhibitors of RanGTP induced Rango (Ran-regulated importin-beta cargo) - Importin beta complex dissociation | Biochemical FRET Rango-importin beta, RanGTP-induced dissociation | Potency, µM (top dose mostly 46.1 µM), for inactives: at the highest dose activity change, negative = inhibition | 340,000 compounds, 0.071% hits | AID 540253, 2011; active means falling FRET ratio curve, often poorly fitted, with flat reads before Ran was added; inconclusive means other falling curves, or compound fluorescence or quenching; inactive means flat or rising ratio curve;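 further: potency means the concentration at half of the fitted maximal effect; % of control where 0% means no effect; nearly all actives have a fitted effect of over 45% in size; -100% = wells without RanGTP and RCC1; the record marks most hits as doubtful in a second field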
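Recombinant Rango FRET biosensor (EYFP–snurportin 1 IBB–cerulean CFP10) at 0.1 uM premixed with 0.25 uM importin beta in PBS, 1 mM DTT, 0.02% Tween-20, 0.1% BSA. Compound added 5 min; RanGTP-RCC1 (0.6 uM Ran, 2 mM GTP, 0.2 uM RCC1) then triggers release, read at 45 min.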
GLA inh pH 4.5 = qHTS Assay for Inhibitors of Human alpha-Galactosidase at pH 4.5 | Alpha-galactosidase A (Homo sapiens), P06280 | purified enzyme, 4-MU-alpha-Gal fluorescence, pH 4.5 | activity change, negative = inhibition, % at 105 µM | 230,000 tested, under 10 active | AID 1467, 2008; inconclusive = small, poorly fitted or top-dose-only inhibition, or a rising curve; inactive = flat fitted curve, though single readings scatter; no compound was filed as active;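 further: 0% = full activity with enzyme and -100% = basal without enzyme; dose as in the result columns while the protocol names 77 µM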
Target sequence (P06280 whole entry, looked up): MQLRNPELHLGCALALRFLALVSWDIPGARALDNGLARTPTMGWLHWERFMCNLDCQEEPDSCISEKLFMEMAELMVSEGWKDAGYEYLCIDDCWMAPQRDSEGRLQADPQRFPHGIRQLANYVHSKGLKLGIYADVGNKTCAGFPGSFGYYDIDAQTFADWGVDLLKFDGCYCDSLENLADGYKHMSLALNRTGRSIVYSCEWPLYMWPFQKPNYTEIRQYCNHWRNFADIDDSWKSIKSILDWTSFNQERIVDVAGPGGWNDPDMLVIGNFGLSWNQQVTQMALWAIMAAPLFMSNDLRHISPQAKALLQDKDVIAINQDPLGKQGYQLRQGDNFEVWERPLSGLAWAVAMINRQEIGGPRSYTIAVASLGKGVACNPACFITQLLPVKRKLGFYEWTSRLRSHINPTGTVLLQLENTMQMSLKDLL
Rango-impB inh = qHTS Assay for Inhibitors of Rango (Ran-regulated importin-beta cargo) - Importin beta complex formation. Importin subunit beta-1 (Homo sapiens), Q14974. Rango CFP/YFP FRET sensor + importin beta, 45 min. Potency, µM (highest dose often 92.2 µM), for the others: at the highest dose inhibition of complex formation. 340,000 compounds, 0.031% hits. AID 540263, 2011; active = rising FRET ratio curve, often small or poorly fitted; inconclusive = mostly compound fluorescence or quenching in the first reads; inactive = flat curves in all reads;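 further: potency means the concentration at half of the fitted maximal effect; 0% = DMSO wells and 100% = buffer wells lacking importin beta; nearly all actives have a fitted effect of over 15% in size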
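FRET biosensor (snurportin 1 IBB flanked by EYFP and cerulean), 50 nM, with compound 5 min, then 0.125 microM importin beta in PBS, 1 mM DTT, 0.02% Tween-20, 0.1% BSA. CFP/YFP ratio read after 45 min at room temperature; pre-read flags interference.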
Numbers without * were called inactive; ? = inconclusive; . = no result given; & = joins results of further samples.

1: Cc1cc(C(=O)NC2CCCc3c2cnn3-c2ccccc2F)nc(C)n1 (stereo not given)
2: CCOC(=O)c1ccc(NC(=O)CSC(=S)N2CCOCC2)cc1
3: COc1ccccc1Nc1nc2ccc(C)cc2n2cnnc12
4: O=C(O)Cn1c(SCCOc2ccccc2F)nc2ccccc21
5: Cc1ccc(S(=O)(=O)N2CCC(C(=O)NCCC3=CCCCC3)CC2)cc1C
6: CCOc1ccc(NS(=O)(=O)c2ccc3c(c2)CCN3C(=O)C2CCC2)cc1
assay / entry	1	2	3	4	5	6
miR-21 FLuc	-9%	3%	-26%	-6%	.	-1%
Rango release inh	-14%	-22%	-7%	0%	1%	26%
GLA inh pH 4.5	.	6	.	2	.	4
Rango-impB inh	-2.5%	?	-0.7%	0.3%	4.4%	6.0%

7: COc1ccccc1NC(=O)CSc1nncn1N
8: CC(=O)c1ccc(NC(=S)N2CCN(c3cccc(Cl)c3)CC2)cc1
9: CCCCCC(=O)Nc1ccc(C(=O)CN2C(=O)NC3(CCCCCC3)C2=O)cc1
10: O=C(CCn1c(=O)c2cccn2c2cccnc21)NCc1cccc(Cl)c1
11: CCOC(=O)/C(C#N)=C/c1c(N2CCN(c3ccc(OC)cc3)CC2)nc2c(C)cccn2c1=O
12: O=C(NCc1ccc2c(c1)OCO2)C1CCC(CNS(=O)(=O)c2ccc(Cl)cc2)CC1 (stereo not given)
assay / entry	7	8	9	10	11	12
miR-21 FLuc	-5%	-1%	.	-8%	0%	-4%
Rango release inh	0%	1%	-14%	1%	10%	-9%
GLA inh pH 4.5	.	6	.	.	.	8
Rango-impB inh	2.3%	-3.6%	-3.6%	0.8%	-4.1%	1.3%

13: Cc1ccc(C(=O)NNC2=NC(C)(C)Cc3ccccc32)cc1
14: c1ccc(N2CCN(Cc3cn4cccnc4n3)CC2)cc1
15: O=S(=O)(NC1CCCCCCC1)c1ccccc1
16: CCOC(=O)c1ccc(NC(=O)COC(=O)c2cccc(Oc3ccccc3)c2)cc1
17: O=C(CSc1nncs1)Nc1ccc(Cl)cc1C(F)(F)F
18: O=C(NC1CCCC1)C(c1ccccc1)N(C(=O)c1ccco1)C1CCCC1 (stereo not given)
assay / entry	13	14	15	16	17	18
miR-21 FLuc	11%	-2%	-3%	-7%	.	-1%
Rango release inh	16%	4%	4%	-12%	-11%	-13%
GLA inh pH 4.5	-2	7	.	2	.	6
Rango-impB inh	2.3%	0.4%	0.8%	-2.9%	3.7%	3.3%

19: CCOC(=O)C1CCCN(C(=O)COc2ccc(N(C)S(=O)(=O)c3ccc(C)cc3)cc2)C1 (stereo not given)
20: CN(C)c1ccc(C2NC(=O)c3ccccc3N2)cc1 (stereo not given)
21: CCOC(=O)CN1C(=O)C(=O)c2cc(C)ccc21
22: O=C(NC1CCN(C(=S)NCc2ccco2)CC1)c1ccc(F)cc1
23: Nc1c(C(=O)NCc2ccco2)nnn1CC(=O)Nc1ccccc1
24: O=C(Nc1ccc(N2CCCC2)cc1)c1ccc2ccccc2c1
assay / entry	19	20	21	22	23	24
miR-21 FLuc	-2%	-36%	0%	-7%	2%	-46%
Rango release inh	4%	8%	6%	-3%	8%	-8%
GLA inh pH 4.5	-14	.	6	5	-11	5
Rango-impB inh	1.1%	4.8%	8.1%	6.5%	0.6%	0.1%

25: CC(OC(=O)C1=COCCO1)C(=O)c1ccc(C(C)(C)C)cc1 (stereo not given)
26: CC1CC(C)CN(C(=O)COC(=O)c2cccc([N+](=O)[O-])c2)C1 (stereo not given)
27: O=C(N/N=C/c1ccccc1)c1ccc(N2CCOCC2)c([N+](=O)[O-])c1
28: CN(Cc1ccc(F)cc1)C(=O)CNC(=O)c1cccs1
29: COCCNC(=O)c1cc2sccc2n1C
30: COc1ccc(NC(=O)CN2CCN(c3ccccc3F)CC2)cc1
assay / entry	25	26	27	28	29	30
miR-21 FLuc	.	-1%	-14%	.	2%	-8%
Rango release inh	14%	-8%	-3%	6%	2%	-2%
GLA inh pH 4.5	.	1	-2	.	3	-6
Rango-impB inh	-3.6%	-0.7%	-3.3%	-2.7%	-0.5%	-0.7%

Three entries from above, sorted by SMILES length, smallest number first:
30: COc1ccc(NC(=O)CN2CCN(c3ccccc3F)CC2)cc1
25: CC(OC(=O)C1=COCCO1)C(=O)c1ccc(C(C)(C)C)cc1 (stereo not given)
26: CC1CC(C)CN(C(=O)COC(=O)c2cccc([N+](=O)[O-])c2)C1 (stereo not given)
assay / entry	30	25	26
miR-21 FLuc	-8%	.	-1%
Rango release inh	-2%	14%	-8%
GLA inh pH 4.5	-6	.	1
Rango-impB inh	-0.7%	-3.6%	-0.7%

Entries of single compounds as entered above. Order of values: miR-21 FLuc	Rango release inh	GLA inh pH 4.5	Rango-impB inh
CCOC(=O)C1CCCN(C(=O)COc2ccc(N(C)S(=O)(=O)c3ccc(C)cc3)cc2)C1 (stereo not given) in the list: -2%	4%	-14	1.1%
O=C(NC1CCCC1)C(c1ccccc1)N(C(=O)c1ccco1)C1CCCC1 (stereo not given) in the list: -1%	-13%	6	3.3%
O=C(Nc1ccc(N2CCCC2)cc1)c1ccc2ccccc2c1 in the list: -46%	-8%	5	0.1%

Next compounds:
31: COC(=O)c1c(NC(C)=O)sc2c1CCN(Cc1ccccc1)C2
32: CCOc1ccc(NC(=O)COC(=O)COc2cccc3c2OC(C)(C)C3)cc1
33: COc1ccc(CCNC(=O)NC(C(F)(F)F)C(F)(F)F)cc1OC
34: Clc1ccccc1CSc1nc2ccncc2[nH]1
35: CCCCNC(=O)C1CCCN1C(=O)Nc1cccc(OC)c1 (stereo not given)
36: COc1cccc2c1cc1c(=O)n(CC(=O)N3CCCC3)nc(C)n12
assay / entry	31	32	33	34	35	36
miR-21 FLuc	2%	5%	-2%	-39%	-1%	.
Rango release inh	?	0%	0%	-5%	8%	3%
GLA inh pH 4.5	.	.	7	-7	-22	.
Rango-impB inh	?	-2.6%	0.0%	1.0%	2.4%	-1.5%

37: Cc1cccc(NC(=O)C(C)SCc2nc3sc(C)c(C)c3c(=O)[nH]2)n1 (stereo not given)
38: COc1ccc(OC)c(-n2c(SCC(=O)NCC3CCCO3)nc3ccccc3c2=O)c1 (stereo not given)
39: Cc1ccc(NC2=NCC(=O)N2CCc2ccccc2)cc1C
40: O=C(NNC(=O)c1cnccc1C(F)(F)F)c1ccccc1
41: C/C(=N\Nc1ccc(S(N)(=O)=O)cc1[N+](=O)[O-])c1ccco1
42: CCOC(=O)c1cnn(-c2nc3c(C)cccc3s2)c1C
assay / entry	37	38	39	40	41	42
miR-21 FLuc	2%	.	-7%	0%	-5%	-2%
Rango release inh	-23%	46%	-2%	-7%	13%	14%
GLA inh pH 4.5	.	.	-3	1	-2	-11
Rango-impB inh	?	-2.3%	2.0%	1.5%	0.7%	1.9%

Individual results from above:
Under Rango-impB inh, compound 41 reads 0.7%
Under Rango release inh, compound 37 reads -23%

Further entries follow:
43: CN(C)c1ccc2c(O)cc(=O)n(C)c2c1
44: CCOc1ncccc1C(=O)OCC(=O)NC(=O)NC(C)C
45: O=C(Nc1ccc([N+](=O)[O-])cc1)C1C(c2ccccc2)=C1c1ccccc1
46: COc1ccc(N2CCN(Cc3nc(-c4ccccc4)no3)CC2)cc1
47: O=c1c([N+](=O)[O-])cc(C(F)(F)F)cn1Cc1c(Cl)cccc1Cl
48: CC(C)c1ccc(NC(=O)c2ccccc2NC(=O)C2CC=CCC2C(=O)O)cc1 (stereo not given)
assay / entry	43	44	45	46	47	48
miR-21 FLuc	-16%	-1%	1%	-1%	0%	-71%
Rango release inh	?	16%	15%	1%	4%	2%
GLA inh pH 4.5	2	-25	1	1	-3	.
Rango-impB inh	?	-0.6%	6.2%	2.9%	-1.0%	-0.9%

49: COc1ccc(N=C2NC(=O)/C(=C\C=C\c3ccccc3)S2)cc1
50: Cc1cccc(C(=O)NCC(c2ccco2)N(C)C)c1 (stereo not given)
51: COc1ccc(S(=O)(=O)N2CCN(c3ccc4nnc(-c5ccc(F)cc5)n4n3)CC2)cc1
52: CC(C)NC(=O)c1cc(C(=O)c2cc(Cl)ccc2O)coc1=N
53: O=C(NCCc1ccncc1)c1ccc2nc(Cc3cccc(Cl)c3)oc2c1
54: COc1ccc(CNC(=O)CN2CCC(NC(=O)c3ccccc3C)CC2)cc1
assay / entry	49	50	51	52	53	54
miR-21 FLuc	-3%	-4%	-1%	0%	9%	-3%
Rango release inh	2%	?	-7%	7%	11%	1%
GLA inh pH 4.5	-5	5	-7	0	.	.
Rango-impB inh	-1.1%	9.5%	-0.2%	-0.8%	-3.4%	0.3%

55: Cn1c(=O)c2ncn(CC(=O)Nc3cccc(-c4nc5ccccc5s4)c3)c2n(C)c1=O
56: C=CCCC(=O)Nc1nc(C)c(-c2csc(Nc3ccc(Cl)cc3)n2)s1
57: CC(C)(C)OC(=O)N[C@H](C(=O)OC(C)(C)C)c1ccc(Br)cc1
58: CCCSc1cc(=O)n(-c2ccccc2)nc1C(=O)O
59: CC1CCCN(CCCNC(=O)c2ccc(CS(=O)(=O)c3c(Cl)cccc3Cl)o2)C1 (stereo not given)
60: CC(=O)N1CCN(S(=O)(=O)c2ccc3c(c2)CCC(=O)N3)CC1
assay / entry	55	56	57	58	59	60
miR-21 FLuc	-40%	14%	.	-2%	4%	.
Rango release inh	-3%	5%	14%	0%	2%	1%
GLA inh pH 4.5	-25	10	.	7	.	.
Rango-impB inh	-3.2%	-1.1%	-3.2%	1.6%	8.8%	-1.7%

61: Cc1ccc(Nc2c(-c3ccc(N4CCOCC4)cc3)nc3ncccn23)cc1
62: Cn1nc(CC(=O)N2CCN(c3ccccc3)CC2)c2ccccc2c1=O
63: CN(C)c1nnc(-c2ccc(Cl)cc2)o1
64: COc1ccc(-c2[nH]ncc2CN(Cc2nccn2C)C(C)C)cc1F
65: O=C(COC(=O)COc1ccc(Cl)cc1Cl)Nc1cccnc1Cl
66: O=C(O)CCC(=O)N1N=C(c2cccs2)CC1c1ccc(Br)cc1 (stereo not given)
assay / entry	61	62	63	64	65	66
miR-21 FLuc	-18%&-18%	8%	-30%	-5%	0%	-14%
Rango release inh	?	-7%	10%	.	5%	-3%
GLA inh pH 4.5	8	-17	-5	2	1	.
Rango-impB inh	?	2.9%	-0.3%	.	5.2%	1.6%

67: CCOC(=O)c1c(S(=O)(=O)NCC(=O)NCc2ccccc2Cl)c(C)n(C)c1C
68: Cc1sc(NC(=O)CSc2nc(N)n(CC(=O)c3ccccc3)n2)c(C#N)c1C
69: c1ccc(Oc2ncnc3ccccc23)cc1
70: Cc1cccc(C)c1NC(=O)CCCSc1nnc(N)s1
71: Cn1c(CNC(=O)c2ccc3c(c2)OCO3)nnc1SCC(=O)Nc1ccccc1F
72: COc1ccc(Cn2cnc3c4cc(F)ccc4n(C)c3c2=O)cc1
assay / entry	67	68	69	70	71	72
miR-21 FLuc	-4%&-4%	-12%	.	8%	3%	-4%
Rango release inh	0%	-1%	19%	?	-13%	-4%
GLA inh pH 4.5	.	3	.	4	.	-12
Rango-impB inh	3.6%	-0.6%	3.0%	0.6%	-0.8%	0.3%

73: Cc1cc(NC(=O)CCC(=O)N(CC(=O)NC2CCCC2)Cc2ccccc2Cl)no1
74: CC(C)OP(=O)(OC(C)C)C(Nc1cccc(C(=O)O)c1)c1ccccc1 (stereo not given)
75: O=C(Nc1ccc(N2CCOCC2)cc1)c1cnccn1
76: O=C(Nc1cccc(C(F)(F)F)c1)c1cc(S(=O)(=O)N2CCCCC2)ccc1N1CCOCC1
assay / entry	73	74	75	76
miR-21 FLuc	1%	7%	25%	0%
Rango release inh	0%	-1%	12%	-8%
GLA inh pH 4.5	10	0	.	-13
Rango-impB inh	-1.1%	0.2%	0.2%	-0.8%

An excerpt, so the mix of outcomes need not match the whole.
